D2 agonist = human D2 receptor agonism in beta-arrestin assay; 360,000 tested, 0.084% active; P14416; DiscoveRx PathHunter D2 beta-arrestin, luminescence, 90 min; 100% = 57 uM dopamine signal; activation, % (test concentration not listed); AID 624465; in the data active = activation above about 40%; inconclusive = about 15% to 40%; inactive = below about 15%; note: compound concentration not given in the record; the text of the record calls up to 30% inactive
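Agonist mode: compounds alone added to overnight-plated D2 PathHunter cells for 90 min at 37 C, with 57 uM final dopamine (EC100) defining full response. Beta-arrestin recruitment detected by chemiluminescent reagent, read after 1 h at ambient temperature.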
Six1-Eya2 blk = inhibitors of human Six1/Eya2 interaction | 360,000 tested, 0.56% active | Q15475+O00167 | AlphaScreen GST-Six1/His-Eya2 binding, biochemical; stronger effect = lower value; control for the full effect not named in the record | AID 651725 | activity change, % (concentration not given with the values); in the data active = activity change below about -65%; inconclusive = about -30% to -65%; inactive = above about -30%; note: % is set by controls: 0 for no effect and ±100 for the full control effect
Target sequence (O00167 whole entry, looked up): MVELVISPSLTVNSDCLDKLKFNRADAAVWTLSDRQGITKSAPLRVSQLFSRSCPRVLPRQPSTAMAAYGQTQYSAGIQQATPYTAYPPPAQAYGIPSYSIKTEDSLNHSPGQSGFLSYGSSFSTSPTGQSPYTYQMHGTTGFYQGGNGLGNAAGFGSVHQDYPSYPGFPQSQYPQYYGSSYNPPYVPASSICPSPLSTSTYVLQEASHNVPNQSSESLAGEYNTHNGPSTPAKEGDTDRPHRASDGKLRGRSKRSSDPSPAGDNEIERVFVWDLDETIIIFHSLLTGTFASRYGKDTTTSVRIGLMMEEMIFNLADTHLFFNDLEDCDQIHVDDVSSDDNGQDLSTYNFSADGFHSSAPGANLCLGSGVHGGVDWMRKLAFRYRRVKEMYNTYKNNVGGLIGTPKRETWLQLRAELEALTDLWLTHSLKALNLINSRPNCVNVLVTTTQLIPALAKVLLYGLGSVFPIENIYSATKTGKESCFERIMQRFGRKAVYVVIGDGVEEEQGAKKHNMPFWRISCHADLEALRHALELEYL
Target sequence (Q15475 whole entry, looked up): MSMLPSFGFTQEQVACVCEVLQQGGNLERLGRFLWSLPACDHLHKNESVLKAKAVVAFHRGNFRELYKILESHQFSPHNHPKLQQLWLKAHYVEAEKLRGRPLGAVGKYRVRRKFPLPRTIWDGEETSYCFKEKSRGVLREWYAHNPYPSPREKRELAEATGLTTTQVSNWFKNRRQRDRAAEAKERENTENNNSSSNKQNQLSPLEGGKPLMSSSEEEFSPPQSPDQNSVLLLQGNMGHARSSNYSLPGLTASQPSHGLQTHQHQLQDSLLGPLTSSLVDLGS
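AlphaScreen with GST-Six1 and His-Eya2 (5X mix: 250 nM and 500 nM), glutathione donor and nickel acceptor beads; buffer 50 mM Tris pH 8.0, 300 mM NaCl, 1 mM TCEP; 1 h at 37 C in the dark.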
TRPML1 ag = human mucolipin-1 channel agonism | AID 624414 | activation, % (no concentration beside the values) | 410,000 tested, 0.12% active | TRPML1-expressing cells, Ca2+ dye fluorescence, FDSS; host cell line not named in the record; reference of the full effect not given here; in the data active = activation above about 50%; inconclusive = about 30% to 50%; inactive = below about 30%; note: 0% is about no effect; the text of the record puts the active cut at 80%
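Calcium fluorescence on an FDSS kinetic reader gave the read-out. Tet-induced TRPML1-DL cells were plated overnight, dye-loaded (Ca8 with quencher, 45-90 min, room temperature, dark), then read 110 s after compound addition, and again 110 s after 4uM final 54-4 (EC80).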
PINK1 expr mod = modulators of PINK1 expression; AID 624263; Potency, µM (series often up to 76.6 µM), for inactives: at the highest dose activation (PINK1 increase), hits mostly activators; PINK1 immunofluorescence, high-content cytometry, 24 h; 410,000 tested, 0.2% active; active = well fitted activation curve with a large enough effect; inconclusive = small, poorly fitted or top-dose-only effect; inactive = flat fitted curve, though single readings scatter; cell line not stated here;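 note: potency is the fitted concentration of half-maximal effect; % of control where 0% means no effect; nearly all actives have a fitted effect of over 65% in size; a mitochondrial uncoupler was the plate control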
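Stable cell line treated 24 h with compounds at 5 concentrations (CCCP controls), then fixed and immunostained for PINK1 plus nuclear and cell stains; PINK1 immunofluorescence quantified by laser-scanning microplate cytometry.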
TRPML1 inh = blocks the human TRPML1 channel; TRPML1-inducible cells, Ca2+ dye fluorescence, FDSS; stronger effect = lower value; inhibition of EC80 agonist-evoked calcium signal; activity change, negative = inhibition, % (no concentration beside the values); 390,000 tested, 0.02% active; in the data active means activity change below about -50%; inconclusive means about -30% to -50%; inactive means above about -30%;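 note: stimulus is agonist 54-4 at its EC80 concentration; % is set by controls: 0 for no effect and ±100 for the full control effect; compound concentration not given in the record; the text of the record puts the active cut at -80%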
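TRPML1-DL cells, Tet-induced overnight (~16 h, 37 °C) at 1,500 cells/well, were loaded with Ca8 no-wash dye plus quencher for 45-90 min at room temperature. Compounds were pinned during FDSS kinetic reading; agonist 54-4 at EC80 (4 uM final) then added.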
D2 PAM = positive allosteric modulators of human D2 dopamine receptor; potentiation, % (concentration not given with the values); AID 624464; 360,000 tested, 0.23% active; DiscoveRx D2 beta-arrestin cells, luminescence, 90 min; 100% = 57 uM dopamine signal; P14416; active = potentiation of 50% or more; inconclusive = 30% to 50%; inactive = 30% or less;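 note: compound concentration not given in the record; tested on top of an EC20 dose of dopamine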
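PathHunter beta-arrestin assay in DiscoveRx D2 cells. Compounds were added with an EC20 of dopamine (50 nM final) for 90 min at 37 deg C. Luminescence was read 1 h after detection reagent, with 57 uM dopamine as the EC100 control.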
* marks the source's active call; other numbers are inactive results; ? = inconclusive; . = not tested or not shown; [ ] = remark or other dose.

canonical_smiles,D2 agonist,Six1-Eya2 blk,TRPML1 ag,PINK1 expr mod,TRPML1 inh,D2 PAM
CC(C)(C)OC(=O)[C@H](Cc1ccccc1)NC(=O)c1nc[nH]c1C(=O)NCc1ccccc1,-4.4,-11,0.3,5.2%,-11,-5
O=C(CSc1nc(=O)n2ccccc2n1)NCc1ccc(F)cc1,4.3,-10,0.5,-1.4%,11,-11
CC(OC(=O)c1ccc(=O)n(Cc2ccccc2)n1)C(=O)Nc1cccc(Cl)c1 (stereo unspecified),-4.0,4,0.3,-0.2%,-3,-31
Cc1c(Cl)ccc2sc(N3CCN(C(=O)C4CC4)CC3)nc12,.,.,0.0,-1.2%,48,.
OCCN(C=NC1=NN(c2cccc(C(F)(F)F)c2)CC1)CCO,-0.9,-1,0.1,-2.8%,-9,2
COc1ccc(-c2c(C)nn3c(C(F)(F)F)cc(C)nc23)cc1,-3.4,-20,1.2,1.1%,12,7
COC(=O)C(Cc1ccccc1)NC(=O)C12CC3CC(CC(C3)C1)C2 (stereo unspecified),-4.3,2,-0.2,-1.6%,-21,-6
CCCCCCSc1ncc(C#N)c(N)n1,-0.8,6,2.5,-0.2%,26,15
CCCN(CC(=O)Nc1ccccc1OC)C(=O)c1nc2nc(C)ccn2n1,-4.3,3,0.5,0.3%,5,-3
NS(=O)(=O)c1cccc(NC(=O)CSc2ncc(C(F)(F)F)cc2Cl)c1,2.9,4,3.1,-0.3%,?,-25
O=C1OC(c2ccc(Cl)cc2)=C/C1=C/c1cccnc1,-2.2,7,-0.7,-2.2%,4,-9
Cc1ccccc1-n1c(C)cc(/C=N/NC(=O)c2ccncc2)c1C,-1.6,-14,0.1,9.8%[38.3 µM],-6,-3

6 compounds picked at random from those above, as already listed:
canonical_smiles,D2 agonist,Six1-Eya2 blk,TRPML1 ag,PINK1 expr mod,TRPML1 inh,D2 PAM
NS(=O)(=O)c1cccc(NC(=O)CSc2ncc(C(F)(F)F)cc2Cl)c1,2.9,4,3.1,-0.3%,?,-25
Cc1c(Cl)ccc2sc(N3CCN(C(=O)C4CC4)CC3)nc12,.,.,0.0,-1.2%,48,.
CC(C)(C)OC(=O)[C@H](Cc1ccccc1)NC(=O)c1nc[nH]c1C(=O)NCc1ccccc1,-4.4,-11,0.3,5.2%,-11,-5
COc1ccc(-c2c(C)nn3c(C(F)(F)F)cc(C)nc23)cc1,-3.4,-20,1.2,1.1%,12,7
Cc1ccccc1-n1c(C)cc(/C=N/NC(=O)c2ccncc2)c1C,-1.6,-14,0.1,9.8%[38.3 µM],-6,-3
CCCN(CC(=O)Nc1ccccc1OC)C(=O)c1nc2nc(C)ccn2n1,-4.3,3,0.5,0.3%,5,-3

The listing continues.
canonical_smiles,D2 agonist,Six1-Eya2 blk,TRPML1 ag,PINK1 expr mod,TRPML1 inh,D2 PAM
CC(=O)Nc1ccc(S(=O)(=O)NCCC(=O)NCCOc2ccccc2)cc1,4.5,5,-0.1,2.0%,30,-3
Cc1ccc2[nH]c(=O)c(CN(CCO)C(=O)NCc3ccccc3)cc2c1,-2.4,1,-1.6,-2.0%,13,-17
Cn1c(=O)c2c(nc(CCc3ccccc3)n2C)n(C)c1=O,0.8,-19,-0.5,0.0%,-6,6
CC(C)c1ccc(NC2(C#N)C(=O)Nc3ccccc32)cc1 (stereo unspecified),-16,-2,-1.0,-0.8%,-15,-62
CC(C)CCn1cnc2c1c(=O)n(C)c(=O)n2C,-0.5,0,1.2,-1.8%,8,9
COCc1ccc(CN2CCC(C(=O)Nc3cccc(-c4cscn4)c3)CC2)o1,-3.1,-1,0.0,-1.1%,1,-42
CC(C)[C@H]1C(=O)Nc2ccccc2N1C(=O)N[C@@H](Cc1ccccc1)C(=O)N[C@@H](Cc1ccccc1)C(=O)O,-6.1,17,.,0.0%,.,-20
COC(=O)C1=C(SC)N(c2ccccc2)C(c2ccccc2)CC1=O (stereo unspecified),2.4,14,0.3,-3.7%,-9,-11
Cc1ccccc1N1CC(C(=O)NC2CCCC2)CC1=O (stereo unspecified),-2.8,-4,0.1,0.0%,-12,-4
CCOCCN(C(=O)c1ccccc1Cl)c1cccc(C)c1C,0.1,6,0.2,0.0%,3,-5
CCCc1nn2c(=O)cc(COC(=O)c3ccccc3NC(=O)c3ccc(OCC)cc3)nc2s1,.,.,0.0,1.5%,11,.
COc1cc(/C=N/NC(=O)C[n+]2ccccc2)cc(OC)c1OC,-1.9,-8,1.1,0.4%,-3,-15

Additional compounds
canonical_smiles,D2 agonist,Six1-Eya2 blk,TRPML1 ag,PINK1 expr mod,TRPML1 inh,D2 PAM
COc1ccccc1Nc1nnc(SCC(=O)N2CCCC2)s1,-1.6,5,0.3,0.3%,9,-7
CC/C(=N/NS(=O)(=O)c1ccc(Cl)cc1)c1ccc(O)cc1,-0.6,2,1.5,2.2%,-2,-11
Cc1nc(CNS(=O)(=O)c2ccc3c(c2)OCCO3)cs1,0.3,1,0.2,0.2%[38.3 µM],-7,-10
CC(=O)NC(=S)Nc1ccc(NC(=O)c2cccnc2Cl)cc1,-5.7,5,-0.5,1.5%,-9,-2
O=C(N/N=C\c1ccncc1)c1ccc(Cl)s1,-7.0,1,1.4,0.1%,-9,-12
COc1ccccc1-n1cnnc1SCC(=O)NC1CCS(=O)(=O)C1 (stereo unspecified),-7.1,13,-0.4,-0.3%,-1,-13
CC(C)CC(=O)Nc1cccc(-c2nc3ccccc3o2)c1,-0.2,4,1.4,2.6%,4,-5
COc1ccc(OC)c(C(=O)c2c(C)oc3cc(Br)c(O)c(CN(C)C)c23)c1,-0.9,2,0.1,1.8%,-4,-6
Cc1nnc(SCC(=O)N2CC(=O)Nc3ccccc32)s1,5.8,10,-0.1,2.3%,5,6
c1ccc(Nc2ncnc3c2oc2ccccc23)cc1,-1.6,-1,0.3,0.8%,-2,-18
OC(CN1CCC(Cc2ccccc2)CC1)C(F)(F)F (stereo unspecified),-3.1,-3,1.2,2.1%,-8,-14
CCOC(=O)C1(C)CCCN1C(=O)c1ccc(N(C)C)cc1 (stereo unspecified),1.4,1,-0.1,-0.2%,-2,-3

(cont.)
canonical_smiles,D2 agonist,Six1-Eya2 blk,TRPML1 ag,PINK1 expr mod,TRPML1 inh,D2 PAM
COc1ccc(C(=O)NCCc2nc3ccccc3[nH]2)cc1,.,.,1.8,0.8%,-12,.
CCOC(=O)NC1(NC(C)C)Oc2ccccc2O1,-0.9,-10,-0.6,2.4%,8,-3
O=C(NS(=O)(=O)NC1CCCCC1)C1=C(N2CCCC2)COC1=O,-6.1,3,-0.4,2.1%,-11,0
COc1ccc(OC)c(NC(=O)C2(C)CCN2C(=O)C2(c3ccc(Cl)cc3)CCC2)c1 (stereo unspecified),-5.6,-24,0.0,2.3%,20,-8
Cc1cc(C)nc(SCC(=O)Nc2ccc(S(=O)(=O)NCCO)cc2)n1,-3.3,3,1.9,-3.7%[38.3 µM],-7,1
Cc1ccc(NC(=O)CCC(=O)NNC(=O)COc2ccccc2)cc1C,0.2,0,0.2,13%,4,-11
O=C(c1cc2ccc3cccnc3c2[nH]1)N1CCN(c2ccc(Cl)cc2)CC1,.,.,1.1,1.8%,-9,.
CCN(CC)C(=O)C1CCCN(C/C=C/c2ccccc2[N+](=O)[O-])C1 (stereo unspecified),0.3,-11,0.6,-0.7%,-11,-13
CCCCOc1ccccc1C(=O)N(Cc1ccco1)C1CCS(=O)(=O)C1 (stereo unspecified),-1.4,9,0.7,0.2%,-2,-6
CCOc1ncccc1C(=O)OCC(=O)Nc1cc(C(C)(C)C)ccc1OC,-5.2,6,3.6,0.1%,34,-34
COc1ccc(N2CCN(C(=O)Cc3ncc(C(F)(F)F)cc3Cl)CC2)cc1,-0.9,-3,-1.3,-2.9%,5,-7
Cc1ccc(S(=O)(=O)c2cc(O)ccc2O)cc1C,0.1,-3,2.2,0.6%,-12,8

Single values from the results shown:
PINK1 expr mod with `O=C(c1cc2ccc3cccnc3c2[nH]1)N1CCN(c2ccc(Cl)cc2)CC1` : 1.8%
TRPML1 inh with `COc1ccc(C(=O)NCCc2nc3ccccc3[nH]2)cc1` : -12

Continued.
canonical_smiles,D2 agonist,Six1-Eya2 blk,TRPML1 ag,PINK1 expr mod,TRPML1 inh,D2 PAM
N/C(=N\c1nc2ccccc2o1)NC(=O)c1ccccc1Br,-2.9,0,1.7,0.2%,53,-4
COC(=O)c1ccccc1NC(=O)C12CC3CC(C1)CC(n1cnc(Cl)n1)(C3)C2,-4.0,9,2.3,-1.8%,31,-9
O=C(O)Cn1nnc(-c2ccc(OCc3cccc(C(F)(F)F)c3)cc2)n1,.,.,-0.5,-1.2%,-1,.
COc1ccc(N2C(=O)Cc3cc(OC)c(OC)cc3C2c2ccc(F)cc2)cc1 (stereo unspecified),.,.,-1.0,6.2%,-25,.
COc1cccc(-c2c(-c3cc(OC)cc(OC)c3)n(C)c3ccc(Br)cc23)c1,-0.8,-11,-0.4,3.6%,-4,-8
COc1ccc(OC)c(/C=N/Nc2cc(C)nc(N3CCOCC3)n2)c1,1.3,-3,1.3,5.9%,5,-5
C=CC[C@@H](CC(=O)N[C@@H](CO)Cc1ccccc1)C(=O)N[C@@H](C)COC(=O)[C@@H](CC=C)Cc1ccc(F)cc1,-2.2,10,0.6,13%,-2,-9
CCc1c(C)nc2ccc(Br)cc2c1SCCC#N,-0.3,0,0.3,5.9%,-23,-6
CCOC(=O)c1c(C)c(-c2ccccc2)n(CC(=O)NC2CCCCC2)c1C,.,.,-1.1,1.9%,-15,.
COc1ccccc1C(=O)Nc1c(C)cc(Br)cc1C,-2.8,12,1.5,4.0%,3,-9
O=S(=O)(NCc1ccncc1)c1ccc(Br)s1,2.4,4,-0.6,-0.3%,6,5
CC1=C(C#N)C(C)(C)C(C#N)=C(C)N1,-4.3,7,0.1,1.9%,-10,-1
CCOC(=O)N1C(=O)NC(=O)C1c1ccccc1 (stereo unspecified),0.1,12,3.8,-2.7%,33,-6
Cc1ccc(C)c(NC(=O)CCC(=O)NNC(=O)COc2cc(C)ccc2C)c1,-2.6,0,-0.5,1.4%,12,9
